Source: PubChem (Broad Institute)
UUG fidelity: modulators of yeast start codon fidelity, primary screen, whole organism, S. cerevisiae, single point, plate reader | actives 0.13% (n = 350,000) | S. cerevisiae UUG-firefly luciferase reporter, luminescence/redox ratio | activity score, % at 18.7 µM;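 active = replicate mean at a twofold rise or more, about +100% in these data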;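 also: firefly luciferase made from a UUG start codon reports start codon fidelity; reporter light over untreated wells divided by growth signal over untreated wells; some hits fall short of that in this replicate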
HIV Env fusion: inhibitors of HIV-1 Env-driven cell-cell fusion, primary screen, HeLa-JRFL effector, CEM21 target cells, luciferase. inhibition, % at 12.3 µM. actives 1.1% (n = 360,000). AID 651610, 2012;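 active = mean replicate inhibition score of at least 50 and every replicate individually at or above 50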;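 also: 0% = plate neutral controls and 100% = maraviroc near 300 nM; one replicate is shown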
* hit, by the source's call; [ ] = another dose, or the depositor's remark. Some of the compounds tested; count on the stated rates, not on these rows.

SMILES	UUG fidelity	HIV Env fusion
C[C@@H]1CN([C@@H](C)CO)C(=O)c2cc(NS(=O)(=O)c3cccs3)ccc2O[C@@H](C)CCCCO[C@H]1CN(C)S(=O)(=O)c1cccs1	-20	-27[16.7 µM]
C[C@@H]1CN([C@H](C)CO)C(=O)Cc2cc(NC(=O)Nc3ccc4c(c3)OCO4)ccc2O[C@H]1CN(C)CC1CCCCC1	9	9[16.7 µM]
C[C@@H]1CN([C@@H](C)CO)C(=O)c2cc(NC(=O)Cn3cnnn3)ccc2O[C@@H]1CN(C)Cc1ccc(-c2ccccc2)cc1	-6	-11[16.7 µM]
C[C@@H]1CCCCO[C@@H](CN(C)C(=O)C2CCCCC2)[C@@H](C)CN([C@@H](C)CO)C(=O)c2cc(NC(=O)NC3CCCCC3)ccc2O1	1	-3[16.7 µM]
C[C@H]1CN([C@@H](C)CO)C(=O)Cc2cc(NC(=O)Cn3cnnn3)ccc2O[C@@H]1CN(C)C(=O)NC1CCCCC1	-3	-9[16.7 µM]
COc1ccc(NC(=O)Nc2ccc3c(c2)C(=O)N([C@H](C)CO)C[C@H](C)[C@H](CN(C)C(=O)Nc2cccc4ccccc24)OCCCC[C@H](C)O3)cc1	-7	-16[16.7 µM]
COc1ccccc1-c1ccc([C@@H]2[C@@H](C#N)N(C(=O)NC3CCCCC3)[C@@H]2CO)cc1	0	4[16.7 µM]
C[C@H](CO)N1C[C@H](C)[C@@H](CN(C)S(=O)(=O)c2cn(C)cn2)OCCCC[C@H](C)Oc2ccc(NC(=O)Nc3ccc4c(c3)OCO4)cc2C1=O	13	-4[16.7 µM]
O=C(C[C@@H]1C=C[C@H](NC(=O)Cc2cccnc2)[C@H](CO)O1)NCc1ccc2c(c1)OCO2	0	-15[16.7 µM]
O=C(C[C@H]1C[C@H]2c3cc(NC(=O)C4CCOCC4)ccc3O[C@H]2[C@H](CO)O1)NCc1ccccc1	-13	1[16.7 µM]
COc1ccc(S(=O)(=O)N(C)C[C@H]2Oc3ccc(NC(=O)Nc4ccc(C(F)(F)F)cc4)cc3C(=O)N([C@@H](C)CO)C[C@H]2C)cc1	-5	6[16.7 µM]
CO[C@@H]1CN(C)C(=O)c2ccc(NS(=O)(=O)c3cccc(F)c3)cc2OC[C@H](C)NC[C@@H]1C	-11	-13[16.7 µM]
C[C@@H]1CN([C@H](C)CO)C(=O)c2cccc(NS(=O)(=O)c3cn(C)cn3)c2O[C@H]1CN(C)S(=O)(=O)c1cccs1	-7	4[16.7 µM]
C[C@@H]1CN([C@H](C)CO)C(=O)c2cc(NC(=O)c3ccccc3)ccc2O[C@@H](C)CCCCO[C@H]1CN(C)C(=O)Nc1ccc2c(c1)OCO2	19	8[16.7 µM]
C[C@@H]1CN([C@@H](C)CO)C(=O)c2cc(NC(=O)CCC(F)(F)F)ccc2O[C@@H]1CN(C)CC1CCCCC1	-5	6[16.7 µM]
O=C(CCN1CCCCC1)NCC[C@@H]1CC[C@H](NC(=O)Nc2ccc(F)cc2)[C@H](CO)O1	-2	2[16.7 µM]
CN1C[C@@H](O)COC[C@@H]2O[C@@H](CC(=O)N3CCN(c4ccccc4)CC3)CC[C@H]21	-8	2[16.7 µM]
C[C@@H]1CCCCO[C@H](CN(C)C(=O)c2ccccc2)[C@H](C)CN([C@H](C)CO)C(=O)c2cc(N(C)C)ccc2O1	-1	-225[16.7 µM]
COc1cccc(NC(=O)N2C[C@@H](O)COC[C@H]3O[C@@H](CC(=O)N(C)C)CC[C@@H]32)c1	-1	-8[16.7 µM]
C[C@H]1CN([C@@H](C)CO)C(=O)c2cc(C3=CCCCC3)cnc2O[C@@H]1CN(C)Cc1ccncc1	-7	12[16.7 µM]
Cc1cccc(S(=O)(=O)N[C@@H]2CC[C@@H](CCn3cc(-c4ccccn4)nn3)O[C@H]2CO)c1	1	-15[16.7 µM]
COc1ccc(S(=O)(=O)N(C)C[C@@H]2OCCCC[C@@H](C)Oc3ccc(NS(=O)(=O)c4c(C)noc4C)cc3C(=O)N([C@H](C)CO)C[C@H]2C)cc1	4	-31[16.7 µM]
COc1ccc([Si](C)(C)[C@H]2[C@H](CCn3cc(CCO)nn3)O[C@@]3(C(=O)N(C)c4ccccc43)[C@@H]2C)cc1	11	16[16.7 µM]
CC(C)c1cn(CC[C@@H]2CC[C@H](NS(=O)(=O)c3ccc(F)cc3)[C@H](CO)O2)nn1	0	0[16.7 µM]
O=C(C[C@@H]1CC[C@H](NC(=O)Nc2cc(F)ccc2F)[C@@H](CO)O1)Nc1ccc(-c2ccccc2)cc1	19	6[16.7 µM]
C[C@H]1CN([C@@H](C)CO)C(=O)Cc2cc(NC(=O)CCCCCC(=O)Nc3ccccc3N)ccc2O[C@@H]1CN(C)C(=O)Nc1ccc2c(c1)OCO2	28	-17[16.7 µM]
CO[C@@H]1CN(C)C(=O)c2cc(NC(C)=O)ccc2OC[C@@H](C)N(C(=O)c2ccccn2)C[C@@H]1C	-7	-4[16.7 µM]
C[C@@H]1CCCCO[C@H](CN(C)Cc2ccc(Cl)c(Cl)c2)[C@@H](C)CN([C@H](C)CO)C(=O)c2cc(NC(=O)NC3CCCCC3)ccc2O1	-5	31[16.7 µM]
COCCNC(=O)C[C@H]1C[C@@H]2c3cc(NC(=O)Nc4ccc(F)cc4)ccc3O[C@@H]2[C@@H](CO)O1	-14	-4[16.7 µM]
O=C(C[C@@H]1C[C@H]2c3cc(NC(=O)NC4CCCC4)ccc3O[C@H]2[C@H](CO)O1)NCCc1ccccc1	11	37[16.7 µM]
Cc1ccc(S(=O)(=O)NCC[C@@H]2CC[C@H](NC(=O)NC(C)C)[C@@H](CO)O2)cc1	7	25[16.7 µM]
COCC(=O)Nc1ccc2c(c1)[C@H]1C[C@@H](CC(=O)N(C)C)O[C@H](CO)[C@H]1O2	-10	-4[16.7 µM]
CNC[C@H]1Oc2c(NC(=O)Nc3ccc(OC)cc3)cccc2C(=O)N([C@H](C)CO)C[C@H]1C	-8	2[16.7 µM]
CCCN1C[C@H](C)[C@@H](OC)CN(C)C(=O)c2ccc(NC(=O)Nc3cccc(F)c3)cc2OC[C@H]1C	-9	-11[16.7 µM]
C[C@@H]1CCCCO[C@H](CN(C)Cc2ccc(C(=O)O)cc2)[C@@H](C)CN([C@H](C)CO)C(=O)c2cc(NC(=O)NC3CCCCC3)ccc2O1	-2	20[16.7 µM]
C[C@H](CO)N1C[C@H](C)[C@@H](CN(C)Cc2ccc(Cl)c(Cl)c2)Oc2ccc(NC(=O)C3CCCCC3)cc2CC1=O	2	26[16.7 µM]
COc1ccccc1-c1ccc2c(c1)O[C@@H](CN(C)C(=O)Nc1cccc(F)c1)[C@H](C)CN([C@@H](C)CO)S2(=O)=O	-5	-66[16.7 µM]
C[C@@H]1CCCCO[C@@H](CN(C)C(=O)CCC(F)(F)F)[C@@H](C)CN([C@H](C)CO)C(=O)c2cc(NC(=O)c3ccncc3)ccc2O1	-23	3[16.7 µM]
COc1ccc(NC(=O)Nc2ccc3c(c2)C(=O)N([C@H](C)CO)C[C@@H](C)[C@@H](CN(C)S(=O)(=O)c2ccc(F)cc2)OCCCC[C@@H](C)O3)cc1	-10	12[16.7 µM]
COc1ccc(CNC(=O)C[C@H]2C=C[C@H](NS(=O)(=O)c3cccc(OC)c3)[C@@H](CO)O2)cc1	-3	4[16.7 µM]
COCC(=O)N(C)C[C@@H]1Oc2ncc(C#Cc3ccc(OC)cc3)cc2C(=O)N([C@H](C)CO)C[C@@H]1C	9	-1[16.7 µM]
C[C@H](CO)N1C[C@H](C)[C@@H](CN(C)Cc2ccc(C(F)(F)F)cc2)Oc2c(NC(=O)c3ccncc3)cccc2C1=O	0	21[16.7 µM]
CCC(=O)N(C)C[C@@H]1Oc2cc(-c3ccc(C#N)cc3)ccc2S(=O)(=O)N([C@H](C)CO)C[C@@H]1C	15	-21[16.7 µM]
C[C@H]1CN([C@@H](C)CO)C(=O)Cc2cc(NC(=O)Nc3ccc4c(c3)OCO4)ccc2O[C@@H]1CN(C)C(=O)NC1CCCCC1	12	-12[16.7 µM]
Cn1cnc(S(=O)(=O)N[C@@H]2C=C[C@H](CC(=O)NCC3CC3)O[C@H]2CO)c1	-3	3[16.7 µM]
COc1ccc(NC(=O)Nc2cccc3c2O[C@@H](CN(C)S(=O)(=O)c2ccc(OC)cc2)[C@H](C)CN([C@@H](C)CO)C3=O)cc1	6	-17[16.7 µM]
C[C@H](CO)N1C[C@H](C)[C@@H](CN(C)C(=O)c2ccccn2)Oc2ncc(Br)cc2C1=O	202*	5[16.7 µM]
C[C@@H]1CCCCO[C@@H](CN(C)C(=O)Nc2cccc3ccccc23)[C@@H](C)CN([C@H](C)CO)C(=O)c2cc(NC(=O)C3CCCCC3)ccc2O1	-1	-11[16.7 µM]
COc1ccccc1C(=O)Nc1ccc2c(c1)C(=O)N(C)C[C@@H](OC)[C@@H](C)CN(CC1CC1)[C@H](C)CO2	-3	16[16.7 µM]
COc1cccc(-c2ccc([C@H]3[C@H](C#N)N(C(=O)c4ccccn4)[C@H]3CO)cc2)c1	-5	9[16.7 µM]
COc1ccc(S(=O)(=O)N(C)C[C@H]2Oc3ccc(NS(=O)(=O)c4cn(C)cn4)cc3C(=O)N([C@@H](C)CO)C[C@@H]2C)cc1	-5	-17[16.7 µM]
C[C@@H](NC(=O)C[C@H]1C[C@@H]2c3cc(NC(=O)Nc4ccccc4F)ccc3O[C@@H]2[C@@H](CO)O1)c1ccccc1	11	18[16.7 µM]
CC(C)c1cn(CC[C@@H]2CC[C@@H](NC(=O)Nc3cc(Cl)cc(Cl)c3)[C@@H](CO)O2)nn1	-15	7[16.7 µM]
C[C@@H]1CN([C@H](C)CO)C(=O)c2cc(NC(=O)C3CCCCC3)ccc2O[C@@H](C)CCCCO[C@@H]1CN(C)Cc1ccccc1	18	-2[16.7 µM]
O=C(C[C@H]1CC[C@@H](NC(=O)C2CCOCC2)[C@@H](CO)O1)Nc1ccc(-c2ccccc2)cc1	9	5[16.7 µM]
C[C@@H]1CN([C@@H](C)CO)C(=O)c2cc(NC(=O)Nc3cccc4ccccc34)ccc2O[C@@H]1CN(C)Cc1ccc(Oc2ccccc2)cc1	-10	-19[16.7 µM]
COc1ccc(CNC(=O)C[C@H]2C=C[C@H](NC(=O)CN(C)C)[C@@H](CO)O2)cc1	-12	-15[16.7 µM]
O=[N+]([O-])c1cccc(/C=C/CO)c1	-23	-8[16.7 µM]
C[C@H](CO)N1C[C@H](C)[C@H](CN(C)Cc2ccccc2C(=O)O)Oc2cc(-c3ccc(C(=O)N(C)C)cc3)ccc2S1(=O)=O	-5	9[16.7 µM]
C[C@H]1CN([C@@H](C)CO)C(=O)Cc2cc(NS(=O)(=O)c3ccccc3)ccc2O[C@H]1CN(C)CC1CCCCC1	2	9[16.7 µM]

Laid out differently: ten of the compounds above
Values run as follows: UUG fidelity	HIV Env fusion
- COc1ccc(S(=O)(=O)N(C)C[C@H]2Oc3ccc(NS(=O)(=O)c4cn(C)cn4)cc3C(=O)N([C@@H](C)CO)C[C@@H]2C)cc1
 : -5	-17[16.7 µM]
- C[C@@H](NC(=O)C[C@H]1C[C@@H]2c3cc(NC(=O)Nc4ccccc4F)ccc3O[C@@H]2[C@@H](CO)O1)c1ccccc1
 : 11	18[16.7 µM]
- CC(C)c1cn(CC[C@@H]2CC[C@@H](NC(=O)Nc3cc(Cl)cc(Cl)c3)[C@@H](CO)O2)nn1
 : -15	7[16.7 µM]
- C[C@@H]1CN([C@H](C)CO)C(=O)c2cc(NC(=O)C3CCCCC3)ccc2O[C@@H](C)CCCCO[C@@H]1CN(C)Cc1ccccc1
 : 18	-2[16.7 µM]
- O=C(C[C@H]1CC[C@@H](NC(=O)C2CCOCC2)[C@@H](CO)O1)Nc1ccc(-c2ccccc2)cc1
 : 9	5[16.7 µM]
- C[C@@H]1CN([C@@H](C)CO)C(=O)c2cc(NC(=O)Nc3cccc4ccccc34)ccc2O[C@@H]1CN(C)Cc1ccc(Oc2ccccc2)cc1
 : -10	-19[16.7 µM]
- COc1ccc(CNC(=O)C[C@H]2C=C[C@H](NC(=O)CN(C)C)[C@@H](CO)O2)cc1
 : -12	-15[16.7 µM]
- O=[N+]([O-])c1cccc(/C=C/CO)c1
 : -23	-8[16.7 µM]
- C[C@H](CO)N1C[C@H](C)[C@H](CN(C)Cc2ccccc2C(=O)O)Oc2cc(-c3ccc(C(=O)N(C)C)cc3)ccc2S1(=O)=O
 : -5	9[16.7 µM]
- C[C@H]1CN([C@@H](C)CO)C(=O)Cc2cc(NS(=O)(=O)c3ccccc3)ccc2O[C@H]1CN(C)CC1CCCCC1
 : 2	9[16.7 µM]

Additional compounds follow:
SMILES	UUG fidelity	HIV Env fusion
O=C(C[C@@H]1C=C[C@@H](NC(=O)Nc2ccc3c(c2)OCO3)[C@@H](CO)O1)NCc1ccc2c(c1)OCO2	11	-4[16.7 µM]
COc1ccc(NC(=O)N(C)C[C@H]2Oc3ccc(NC(=O)C4CCCCC4)cc3CC(=O)N([C@H](C)CO)C[C@H]2C)cc1	-4	-10[16.7 µM]
COc1ccccc1NC(=O)N[C@@H]1CC[C@@H](CCNS(=O)(=O)c2ccc(Cl)cc2)O[C@@H]1CO	7	27[16.7 µM]
COc1ccc(NC(=O)N(C)C[C@@H]2Oc3c(NC(=O)c4ccc(-c5nccs5)cc4)cccc3C(=O)N([C@@H](C)CO)C[C@@H]2C)cc1	-4	-19[16.7 µM]
C[C@H](CO)N1C[C@H](C)[C@H](CN(C)C(=O)Nc2ccc3c(c2)OCO3)OCCCC[C@H](C)Oc2ccc(NC(=O)CCCCCC(=O)Nc3ccccc3N)cc2C1=O	-15	0[16.7 µM]
Cc1ccc(S(=O)(=O)Nc2ccc3c(c2)C(=O)N([C@@H](C)CO)C[C@@H](C)[C@H](CN(C)C(=O)Nc2ccc4c(c2)OCO4)OCCCC[C@@H](C)O3)cc1	-8	-35[16.7 µM]
